# Screening data from PubChem.
# gsp antagonist: qHTS for Antagonists of gsp, the Etiologic Mutation Responsible for Fibrous Dysplasia/McCune-Albright Syndrome: qHTS; gsp-mutant cells, cAMP HTRF, 30 min; control for the full effect not named in the record; Potency, µM (series often up to 76.9 µM), for the others: at the highest dose activity change, negative = inhibition, usual class: inhibitors; 340,000 tested, 0.4% active; AID 624288, 2012; active = falling curve of any shape with a large fitted effect; inconclusive = falling curve, mostly with a smaller effect; inactive = flat or rising curve; cell line not stated here;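 note: intracellular cAMP measured with PDE inhibitor Ro 20-1724 present during compound exposure; potency is the fitted concentration of half-maximal effect; % is set by controls: 0 for no effect and ±100 for the full control effect; nearly all actives have a fitted effect of over 65% in size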
#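 Cells, 2000/well, grown 16–24 h in DMEM 10% FBS with 0.5 mg/ml G418, then compounds plus […] (300 uM addition stock), 30 min at 37C. cAMP read by HTRF (cAMP-d2 and anti-cAMP antibody-K in lysis buffer) after 30 min RT.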
# Menin-MLL FL inh: qHTS Assay for Inhibitors Targeting the Menin-MLL Interaction in MLL Related Leukemias: Competition With Fluorescein Labeled MLL-derived Peptide. FP activity change, % at 61.4 µM. AID 1766, 2009. Fluorescence polarization, fluorescein-MLL peptide displacement from menin. 290,000 tested, under 10 active; inconclusive = falling polarisation curve, or a change in total fluorescence; inactive = total fluorescence flat and polarisation flat or rising; no compound was filed as active; the % refers to the polarisation; negative = inhibition;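 note: % of control where 0% means no effect; inhibitors lower the polarisation; unlabelled MLL peptide was the positive control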
# gsp agonist: qHTS for Agonist of gsp, the Etiologic Mutation Responsible for Fibrous Dysplasia/McCune-Albright Syndrome: qHTS. AID 624287, 2012. 340,000 tested, 0.13% active. Potency, µM (top dose mostly 76.9 µM), for inactives: top-dose activation (cAMP increase), usual class: activators. gsp mutant cells, cAMP HTRF, 30 min; control for the full effect not named in the record; active = well fitted activation curve with a large enough effect; inconclusive = small, poorly fitted or top-dose-only effect, or another doubt; inactive = no such curve, though single readings can be large or run the other way; cell line not stated here;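 note: phosphodiesterase inhibitor Ro 20-1724 added with compounds to block cAMP breakdown; potency is the fitted concentration of half-maximal effect; nearly all actives have a fitted effect of over 60% in size; about a fifth of the inactives were tested at one dose only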
#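 Cells in DMEM/10% FBS with G418 were pretreated with compounds in DMSO plus […] (300 uM stock) for 30 min at 37C. cAMP was measured by HTRF (cAMP-d2 plus anti-cAMP antibody-K) after 30 min at room temperature.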
# CtBP-E1A inh: qHTS Assay for Inhibitors of the CtBP/E1A Interaction; AID 651724, 2012; activity change, % (test concentration not listed); AlphaScreen GST-E1A/His-CtBP binding, 1536-well; active compounds read low; control for the full effect not named in the record; CtBP / adenovirus E1A interaction (AlphaScreen); 340,000 tested, 0.49% active; in the data active means activity change below about -65%; inconclusive means about -30% to -65%; inactive means above about -30%; note: % is set by controls: 0 for no effect and ±100 for the full control effect
#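 In 5 uL wells, 23 nL compound meets equimolar GST-E1A and His-CtBP (5X stock 125 nM each) for 2 h, 37 °C. Beads (5X, 50 ug/mL) then 1 h, 37 °C, dark.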
# ClpP mod: qHTS Assay for Activators of ClpP; ATP-dependent Clp protease proteolytic subunit (Bacillus subtilis (strain 168)), P80244; purified B. subtilis ClpP, FRET peptide cleavage, 20 min; Potency, µM (top dose mostly 57.5 µM), without a hit: top-dose activity change, negative = active; 340,000 tested, 1.9% active; active = well fitted falling curve with a large enough effect; inconclusive = small, poorly fitted or top-dose-only effect; inactive = no such curve, though single readings can be large or run the other way; note: potency is the fitted concentration of half-maximal effect; the source files actives as falling curves though it sought activators and does not explain the sign; nearly all actives have a fitted effect of over 65% in size; many hits overshoot -100%
# Target sequence (P80244 whole entry, looked up): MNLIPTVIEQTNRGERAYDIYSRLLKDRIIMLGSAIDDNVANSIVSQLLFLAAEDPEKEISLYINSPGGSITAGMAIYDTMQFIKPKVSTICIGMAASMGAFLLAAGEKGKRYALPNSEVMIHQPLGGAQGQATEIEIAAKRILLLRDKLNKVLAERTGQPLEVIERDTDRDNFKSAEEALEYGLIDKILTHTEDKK
#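 Purified B. subtilis ClpP, 10 microg/mL final in Tris/HCl pH8 with KCl, BSA, glycerol and Tween-20, cleaved an Abz/nitrotyrosine-quenched decapeptide. Fluorescence (ex 320, em 430) was read at 0 and 20 min at room temperature. Delta was normalized to 5.8 microM ADEP and DMSO/no-enzyme controls.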
# Sfp inh: qHTS Assay for Inhibitors of Bacillus subtilis Sfp phosphopantetheinyl transferase (PPTase); 310,000 tested, 3.5% active; Potency, µM, for inactives: max response, negative = inhibition, hits mostly inhibitors; AID 1490, 2009; 4'-phosphopantetheinyl transferase ffp (Bacillus subtilis), Q9F4F7; Biochemical Sfp PPTase activity, qHTS; active = well fitted inhibition curve with a large enough effect; inconclusive = small, poorly fitted or top-dose-only effect, or another doubt; inactive = no such curve, though single readings can be large or run the other way;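 note: the enzyme is Sfp with the accession as filed and its product quenches rhodamine fluorescence; potency is the fitted concentration of half-maximal effect; 0% = enzyme reaction without inhibitor and -100% = no enzyme wells; top concentration of the series not given in the record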
#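 Reaction rates are the 30-min fluorescence difference (ex 525, em 598 nm) in wells containing 15 nM Sfp, 5 uM rhodamine-CoA and 12.5 uM BHQ-2-YbbR at pH 7.6 with 10 mM MgCl2.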
# TRPV1 PAM: HTS Assay for Compounds that Act as Potentiators of the Vanilloid Receptor 1; potentiation, % at 8.33 µM; AID 540277, 2011; TRPV1-expressing cells, Fluo-8 calcium influx, capsaicin EC20 potentiation; host cell line not named in the record; control for the full effect not named in the record; 320,000 tested, 0.02% active; active means potentiation above 80%; inconclusive means 30% to 80%; inactive means below 30%; note: 0% is about no effect
# Target sequence (Q8NER1 whole entry, looked up): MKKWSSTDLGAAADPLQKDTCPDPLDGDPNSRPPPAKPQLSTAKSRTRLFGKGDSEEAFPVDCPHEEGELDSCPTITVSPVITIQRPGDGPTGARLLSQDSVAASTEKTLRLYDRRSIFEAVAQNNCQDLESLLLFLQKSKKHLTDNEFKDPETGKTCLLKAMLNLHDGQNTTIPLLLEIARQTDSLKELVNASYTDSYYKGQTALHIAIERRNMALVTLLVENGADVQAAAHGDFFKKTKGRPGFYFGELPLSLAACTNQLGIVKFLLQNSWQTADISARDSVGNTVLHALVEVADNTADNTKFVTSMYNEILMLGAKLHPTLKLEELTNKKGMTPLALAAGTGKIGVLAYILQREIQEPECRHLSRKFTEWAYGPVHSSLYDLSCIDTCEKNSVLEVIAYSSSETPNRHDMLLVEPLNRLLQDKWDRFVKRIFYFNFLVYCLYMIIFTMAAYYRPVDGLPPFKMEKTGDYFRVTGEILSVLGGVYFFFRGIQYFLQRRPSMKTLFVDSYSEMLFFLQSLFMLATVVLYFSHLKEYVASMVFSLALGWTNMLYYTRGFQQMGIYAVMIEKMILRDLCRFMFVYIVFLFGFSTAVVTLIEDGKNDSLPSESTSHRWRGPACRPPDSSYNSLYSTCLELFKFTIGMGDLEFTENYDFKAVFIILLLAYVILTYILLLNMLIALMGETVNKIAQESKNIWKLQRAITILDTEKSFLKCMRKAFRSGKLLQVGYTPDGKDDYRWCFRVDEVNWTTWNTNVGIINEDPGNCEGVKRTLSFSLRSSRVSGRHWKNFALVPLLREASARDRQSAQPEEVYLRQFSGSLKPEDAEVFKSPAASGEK
#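 Cells expressing TRPV1 were dye-loaded with Fluo-8 and read kinetically: 10 s baseline, 3 min after compound (agonist portion), then 2 min after EC20 capsaicin (allosteric enhancer portion). Calcium-bound dye fluorescence at 480/520 nm.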
# * hit, by the source's call; ? = inconclusive; / = not tested or not shown; & = joins results of further samples; [ ] = another dose, or the depositor's remark.
mol	gsp antagonist	Menin-MLL FL inh	gsp agonist	CtBP-E1A inh	ClpP mod	Sfp inh	TRPV1 PAM
CCCc1cc2c(cc1NC(=O)c1ccco1)OCO2	3%	-4.8	2%[15.4 µM]	5	/	12%	-6
O=C1c2ccc([N+](=O)[O-])cc2S(=O)(=O)N1Cc1ccccc1	0%	3.6	-14%	0	/	-7%	0
COc1ccc(S(=O)(=O)N(C)C[C@H]2Oc3ccc(NC(=O)Nc4c(C)noc4C)cc3C(=O)N([C@H](C)CO)C[C@@H]2C)cc1	13%	/	/	5	0.6%	/	/
c1ccc(-c2ccc3nnnn3n2)cc1	5%	2.1	4%	/	-11%	16%	0
CCCN=CC1=C(O)CC(c2ccccc2)CC1=O (configuration not stated)	3%	2.9	-16%	6	1.0%	7%	-21
CN(Cc1nc(-c2ccc(Cl)cc2)no1)C(=O)c1ccc2c(c1)OCO2	-10%	/	-1%	5	1.3%	/	-9
O=C(COc1ccc(Br)cc1)NCCNC(=O)c1ccccn1	7%	0.9	?	-1	-2.7%	16%	-15
C[C@@]12CCC[C@H](O1)[C@@H]([C@H](O)c1ccccc1)O2	5%	/	/	4	1.5%	/	/
CCCN1CCN(C(=O)Cn2cnc3sc(C)c(S(=O)(=O)N4CCC(C)CC4)c3c2=O)CC1	3%	-1.3	2%	-10	/	9%	9
CC(C)C(=O)N(c1cc2sc(=O)oc2c2ccccc12)S(=O)(=O)c1cccs1	-18%	1.5	-36%[inhibitor]	-16	-6.3%	10µM*	7
CCOC(=O)c1cc(-c2ccccc2)sc1NC(=O)COC(=O)c1ccc(Cl)c(S(N)(=O)=O)c1	15%	0.9	-11%[15.4 µM]	/	/	2%	-4
CC(C)OCCCNC(=O)CN1C(=O)/C(=C/c2ccccc2F)Oc2ccccc21	12%	8.2	13%	7	/	-4%	-10
CCCCCn1c(CN2CCN(c3cc(Cl)ccc3C)CC2)nc2c1c(=O)[nH]c(=O)n2C	10%	0.3	-1%	2	0.5%	-5%	9
CN1CCN(c2ccccc2NC(=O)c2cccc(OCc3ccccc3)c2)CC1	0%	-1.4	-43%[inhibitor]	-6	-3.9%	?	-1
C/C(=C\c1ccccc1)C(=O)N1CCN(c2cccc(C(F)(F)F)c2)CC1	-7%	0.6	1%	4	0.4%	-20%	-7
CC(=O)c1ccc(C(C)(C)c2ccc(C(C)=O)s2)s1	?	2.1	-31%[inhibitor]	-1	0.0%	-24%	-9
Cc1cc(NS(=O)(=O)c2ccc(NC(=O)Nc3ccc4c(c3)OCO4)cc2)no1	-10%	1.5	-56%[inhibitor]	-26	-1.2%	1%	12
CCC(C)C(NS(=O)(=O)c1ccc(C)cc1)C(=O)Oc1ccc2c3c(c(=O)oc2c1)CCC3 (configuration not stated)	-13%	7.2	-4%	-4	465%	7%	5
NC(=O)CC1C(=O)N(c2ccccc2)C(=S)N1NC(=O)c1ccccc1 (configuration not stated)	4%	-1.6	-2%	-11	/	15%	11
CCCCCCCCCCCCCCCC(=O)OC/C=C(C)/C=C/C=C(C)/C=C/C1=C(C)CCCC1(C)C	4%	-1.0	-83%[inhibitor]	2	0.6%	-17%	-1
Cc1cc(C)c2[nH]c(O)c(N=NC(=O)c3cc4c(s3)CCCC4)c2c1	/	2.0	/	/	/	?	6
Cn1c(CCN2CCN(c3ccccc3)CC2)nc2cc(NC(=O)c3ccco3)ccc21	-7%	-0.1	9%[15.4 µM]	-7	-0.2%	15%	/
CCOc1ccc(C(=O)CCC(=O)N2CCN(c3ncccn3)CC2)cc1	-6%	?	18%[15.4 µM]	2	0.0%	?	-10
COc1ccc(OC)c(CNC(=O)C(C)n2nc(C)c3c(C)n(-c4ccccc4)nc3c2=O)c1 (configuration not stated)	-2%	/	-15%	-11	-2.1%	20%	-14
CCN(CC)S(=O)(=O)c1cc(Br)ccc1OC	-8%	-3.4	?	9	0.5%	-1%	-11
CC(=O)c1c(C)[nH]c(C(=O)N2CCN(S(=O)(=O)c3ccc(C)cc3C)CC2)c1C	-11%	/	-18%	/	-2.1%	/	3
COc1ccc(-c2cc(C)no2)cc1S(=O)(=O)NCCCN(C)Cc1ccccc1	9%	2.6	10%	-6	0.4%	27%	-6
O=C(c1ccccc1F)N1CCCC(c2ccccc2)C1 (configuration not stated)	7%	3.9	20%	2	3.2%	-3%	-9
O=C(N/N=C/c1ccccn1)c1cc(-c2ccncc2)nc2ccccc12	11%	-22	0%	-73*	1.0%	3%	15
CCCC/C(O)=C/c1nc2ccccc2[nH]c1=O	1%	-11	-12%	0	-14%	11%	-6
CCN(CC(N)=O)S(=O)(=O)c1ccc(Br)cc1	-2%	1.9	?	-3	-2.1%	17%	13
COc1ccc(OC)c2sc(NNC(=O)C3COc4ccccc4O3)nc12 (configuration not stated)	3%	2.0	6%	7	2.2%	15%	0
Cc1cc(C)n(-c2cccc(F)n2)n1	7%	0.2	-2%[15.4 µM]	2	/	3%	1
CN(C)c1ccc(C(CN)c2c[nH]c3ccccc23)cc1 (configuration not stated)	-27%	?	-36%[inhibitor]	-5	0.2%	50µM*	19
CCCCC(=O)NC(NC(=S)N1CCCCCC1)C(Cl)(Cl)Cl (configuration not stated)	-4%	-1.9	-17%	9	1.6%	1%	-13
COc1ccccc1C(=O)Nc1c(C)cc(Br)cc1C	-10%	-5.2	-2%	/	-3.3%	-13%	-3
Cc1ccc2c(Cl)cc(Cl)c(OCC(=O)NCCc3ccccn3)c2n1	-13%	-4.2	15%	-16	?	-2%	-13
CCCNC(=O)NC(=O)CSc1nnc(C)n1N	14%	-3.3	39%	15	-2.9%	7%	12
COc1ccc(/C=N/Nc2nccnc2Cl)c(OC)c1	-28%	5.3	-1%[15.4 µM]	/	/	?	2
C=C(C)CSc1nnc2[nH]c(=O)cc(N)n12	0%	/	20%	3	-1.4%	/	/
COc1cccc(C(=O)NCc2ccc3[nH]c(C)cc3c2)c1	-2%	?	-2%	4	0.9%	?	7
CN(C)S(=O)(=O)c1cccc(CSCc2cccc(S(=O)(=O)N(C)C)c2)c1	-21%	-7.0	12%[15.4 µM]	5	/	-2%	5
Cc1nc(NC(=O)c2ccccc2)sc1-c1csc(Nc2cccc(F)c2)n1	/	-1.3	/	/	/	1%	13
CCN1CCN(Cc2c(C(=O)N/N=C(\C)c3ccc(Cl)cc3)nnn2-c2nonc2N)CC1	0%	-6.4	24%	-10	-0.6%	-1%	-5
C=CCn1c(SCC(=O)NCC2CCCO2)nc2sc(CC)cc2c1=O (configuration not stated)	-5%	/	-7%	8	1.6%	/	/
CCC(C)C(NC(=O)C1CCC(C)CC1)C(=O)NC1CCN(Cc2ccccc2)CC1 (configuration not stated)	/	-11	/	/	/	10%	5
O=C(COC(=O)c1ccc(S(=O)(=O)N2CCCCCC2)cc1)Nc1ccccc1C(F)(F)F	/	/	3%	-6	0.8%	/	/
Cc1cccc(N(C)C(=S)Oc2ccc3ccccc3c2)c1	-9%	-0.1	/	22	0.3%	-1%&-6%&7%	15
O=[N+]([O-])c1c(NCCO)cc(N2CCCCC2)c2nonc12	-10%	2.9	-2%[15.4 µM]	-11	/	12%	-7
CC(=O)NC1C(=O)N=C(SCC(=O)Nc2cccc(Cl)c2)NC1=O (configuration not stated)	-4%	2.3	-5%[15.4 µM]	0	1.6%	-6%	-1
CCC(C)NC(=O)c1ccc(Cl)c(S(=O)(=O)Nc2ccccc2N2CCOCC2)c1 (configuration not stated)	-13%	/	-84%	0	-0.4%	/	8
CCc1c(C)c(C#N)c2[nH]c3ccccc3n2c1=S	-12%	9.1	2%[15.4 µM]	-4	/	79µM*	-11
CN1C(=O)C(O)(CC(=O)c2ccccn2)c2cc(Br)ccc21 (configuration not stated)	7%	4.6	-18%	0	-1.0%	8%	-3
O=Cc1c(-c2ccccc2)nc2ccccn12	9%	0.2	1%	0	-2.4%	22%	7
CCOCC(=O)Nc1c(C)n(C)n(-c2ccccc2)c1=O	/	-5.5	/	/	/	24%	-5
CC1(C)Cc2c(sc3[nH]c(=S)n(Cc4ccco4)c(=O)c23)CO1	4%	15	?	10	-3.9%	14µM*	-5
O=c1nccc(N/N=C/c2ccccc2)[nH]1	0%	-8.3	-5%	2	-1.5%	-16%	7
CCCN(CCC)C(=O)C(c1ccccc1)C1(O)CCCCC1 (configuration not stated)	-28%	/	-19%	4	/	/	/
CN(C(=O)COC(=O)c1ccc(CN2CCCC2=O)cc1)c1ccccc1	-8%	/	-47%[inhibitor]	/	0.5%	/	-1
O=C(CSc1nccc(=O)[nH]1)NCc1ccco1	5%	6.0	-16%	/	0.3%	-11%	16
O=C(NCC1CCCO1)c1onc(CSc2cccc3ccccc23)c1C(=O)O (configuration not stated)	-15%	-2.0	/	0	-4.2%	12%	1
O=C(C[n+]1ccc(C(=O)c2ccccc2)cc1)Nc1ccc(C(F)(F)F)cc1	5%	-4.8	3%	-9	/	7%	-4
Cc1ccc(S(=O)(=O)c2ccc(Cl)cc2)cc1S(=O)(=O)N1CCOCC1	-10%	3.3	-30%	2	-0.2%	14%	2
